Screens (PubChem BioAssay)
hNpr1 antagonist: human Npr1 receptor antagonism. P16066. HEK293 hNpr1 GloSensor cGMP, ANP-stimulated luminescence. Potency, µM (series often up to 46.3 µM), for the others: at the highest dose activity change, negative = inhibition, usual class: inhibitors. 76,000 tested, 1.6% active; active = well fitted inhibition curve with a large enough effect; inconclusive = small, poorly fitted or top-dose-only effect; inactive = no such curve, though single readings can be large or run the other way;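 further: nearly all actives have a fitted effect of over 60% in size; nearly all hits also lower the signal before the agonist is added; a reference antagonist and vehicle were the controls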
Target sequence (P16066 whole entry, looked up): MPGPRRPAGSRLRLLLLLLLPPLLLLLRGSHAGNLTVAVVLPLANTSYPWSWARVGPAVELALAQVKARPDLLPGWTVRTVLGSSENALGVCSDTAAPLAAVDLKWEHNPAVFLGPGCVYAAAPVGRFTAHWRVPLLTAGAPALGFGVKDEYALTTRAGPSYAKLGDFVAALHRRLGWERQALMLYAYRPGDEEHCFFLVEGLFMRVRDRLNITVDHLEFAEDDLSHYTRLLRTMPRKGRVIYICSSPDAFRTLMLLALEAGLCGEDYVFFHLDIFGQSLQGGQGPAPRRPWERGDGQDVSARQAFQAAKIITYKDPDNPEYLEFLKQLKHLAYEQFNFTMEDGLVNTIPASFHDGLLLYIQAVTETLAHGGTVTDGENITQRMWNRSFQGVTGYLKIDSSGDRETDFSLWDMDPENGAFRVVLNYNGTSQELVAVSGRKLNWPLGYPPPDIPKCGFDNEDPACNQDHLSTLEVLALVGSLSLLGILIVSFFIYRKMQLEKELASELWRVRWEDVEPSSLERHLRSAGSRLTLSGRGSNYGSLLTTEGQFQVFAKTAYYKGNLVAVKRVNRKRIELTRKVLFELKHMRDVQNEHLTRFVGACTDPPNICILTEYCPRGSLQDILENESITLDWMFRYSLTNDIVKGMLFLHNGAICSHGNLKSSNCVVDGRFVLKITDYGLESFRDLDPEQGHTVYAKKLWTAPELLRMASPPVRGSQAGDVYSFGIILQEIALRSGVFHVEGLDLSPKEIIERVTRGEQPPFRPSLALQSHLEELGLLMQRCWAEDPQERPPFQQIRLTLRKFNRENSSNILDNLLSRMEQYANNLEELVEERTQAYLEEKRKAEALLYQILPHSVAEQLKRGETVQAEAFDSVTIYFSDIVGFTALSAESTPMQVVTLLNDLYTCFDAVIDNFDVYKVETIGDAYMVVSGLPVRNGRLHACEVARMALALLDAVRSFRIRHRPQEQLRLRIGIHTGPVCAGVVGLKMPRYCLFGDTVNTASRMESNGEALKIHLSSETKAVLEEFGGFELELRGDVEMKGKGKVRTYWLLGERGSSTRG
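HEK293 cells stably expressing human Npr1 and cGMP GloSensor pGS-40F, loaded 2 h with 2% GloSensor reagent, given compound 30 min at room temperature. Luminescence read before and 20 min after 0.1 nM hNppA.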
Numbers without * were called inactive; ? = inconclusive; & = joins results of further samples; [ ] = dose if it differs, or a comment. On the % scale 0 is the no-effect control and ±100 the full control effect; potency means the concentration at half of the fitted maximal effect.

structure	hNpr1 antagonist
Cc1nc2ccc(C(=O)Nc3ccccc3C(=O)N3CCCCCC3)cc2[nH]1	6%
CC(Oc1ccc2ccccc2c1)C(=O)N1CCCOCC1 (configuration not stated)	-9%
CC(=O)N1CC2(CCN(CCS(C)(=O)=O)CC2)CC1C(=O)O (configuration not stated)	-10%
CC1=NOC2(CCN(C(=O)c3ccccn3)C2)C1 (configuration not stated)	0%[70.6 µM]
CC(C)n1cnnc1-c1nn(C)c2c1CN(C(=O)Cc1c[nH]c3ccccc13)CC2	2%
Cc1nc(C)c(C(=O)N2CCC(N3C(=O)C4(CCCCC4)C3c3ccccc3)CC2)s1 (configuration not stated)	0%
Cc1nn2c(c1-c1ccccc1C(C)C)N([S+](=O)([O-])c1ccc(C(C)C)cc1)CCC2	?
N#Cc1cccc(C(=O)N2CCCOCCNC(=O)CC2)c1	-1%
COC[C@@H]1CN(C(=O)CCc2c(C)n[nH]c2C)C[C@H]1c1ccncc1	4%
Clc1cc(N2CCCCC2)n2nccc2n1	18%[70.6 µM]

Copied from the results shown for reference:
structure	hNpr1 antagonist
COC[C@@H]1CN(C(=O)CCc2c(C)n[nH]c2C)C[C@H]1c1ccncc1	4%
Clc1cc(N2CCCCC2)n2nccc2n1	18%[70.6 µM]

New compounds follow
structure	hNpr1 antagonist
C=CCN(C)C(=O)[C@@H](C)C1CC[C@@]2(C)Cc3sc(NC(=O)CN(C)C)nc3[C@@H](C)[C@@H]2[C@H]1O (some centres not stated)	-19%
COc1cccc(CNC(=O)C2CCN(c3cc(C(F)(F)F)nc(C)n3)CC2)c1	0%
CCOc1ccc(C(=O)NC2CCN(c3cnn(CC)c(=O)c3)CC2)cc1	-11%
COCCN1C(=O)c2cccn2CC1CNC(=O)NCc1ccc(C)cc1 (configuration not stated)	5%
Cc1cccc(C)c1-c1nc(C(=O)NCc2cccnc2)n2ccccc12	-9%
Cc1ccccc1CNC[C@H]1Cn2ccnc2CO1	0%[70.6 µM]
COc1cccc(NC(=O)CN2C(=O)NC(c3ccccc3Cl)C3=C2COC3=O)c1 (configuration not stated)	-16%
CCn1ncc(C(=O)N[C@@H]2CN(c3ccncn3)C[C@H]2CN(C)C)c1C	4%
CC(C)CC(=O)N1CCCCCNC(=O)[C@H]2C[C@H](C(=O)N3CCc4ccccc4C3)C[C@H]21	-3%
O=C(Cc1ccc(F)cc1)N1CCC2(CC1)Cc1ccccc1NC2=O	?

structure	hNpr1 antagonist
O=C(C1CCCC1)N1CCC(c2nc(C3CCOCC3)no2)C1 (configuration not stated)	0%
O=C(NCc1ccccc1)NC1CCN(C(=O)N2CC3CC(C2)[C@H]2CCCC(=O)N2C3)CC1 (some centres not stated)	8%
CCC(CC)NC(=O)C1(CCO)CC12CCOCC2 (configuration not stated)	-17%
COc1ccc(CNC(=O)COc2ccc(NC(=O)C3CC3)cn2)cc1	1%
COc1ccccc1Nc1ncc2c(n1)CN(C(=O)c1ccc(Cl)cc1)CCN2	-30%[70.6 µM]
Cn1cnc(S(=O)(=O)N2CCCN(C(=O)C3CC3)C(c3ccccc3)CC(=O)NCC2)c1 (configuration not stated)	5%
COc1ccc(CN2C[C@H]3CN(C(=O)C4CCOCC4)CCN3C2=O)cc1	4%[70.6 µM]
CNC(c1ccccc1)c1nc(-c2cccnn2)no1 (configuration not stated)	0%
O=C(N[C@@H]1CN(Cc2ccc(F)cc2F)C[C@H]1CO)c1cnccn1	3%
Cc1c(-c2cc(C(=O)N[C@@H]3CCOC[C@H]3OCC(=O)O)no2)cnn1C	-2%

structure	hNpr1 antagonist
COc1cc(NC(=O)Cn2c(-c3cccc(Cl)c3)nc(C)c(CCO)c2=O)cc(OC)c1OC	-13%
CC(C)c1cc(C(=O)N2CC[C@@](O)(C3CCOCC3)[C@H](C)C2)cs1	11%
CC(=O)Nc1ccc(S(=O)(=O)N2C[C@@H]3C[C@H](C2)c2ccc(-c4ccc5ccccc5c4)c(=O)n2C3)cc1	-2%
CCOCC(=O)N1CCC(Oc2ncccc2C(=O)N2CCCCC2)C1 (configuration not stated)	2%
O=C(c1cccs1)N1CCC(Cc2nc(C3CCOCC3)no2)CC1	-16%
Cc1ccc(S(=O)(=O)N2CCCC(CCC(=O)NCc3ccccn3)C2)cc1 (configuration not stated)	-2%
O=C(c1ccc2nc(-c3ccccc3)cn2c1)N1C[C@@H]2CCC[C@H]1C2	2%
COCCOC1CCN(C(=O)COc2ccc(C)cc2)CC1	10%
COc1nc2nc(CC3CC3)n(C)c2cc1-c1ccncc1	2%[70.6 µM]
Cc1ccccc1NC(=O)Cn1c(-c2cccc(Cl)c2)nc(C)c(CCO)c1=O	-3%

structure	hNpr1 antagonist
O=C1NC2(CCN(Cc3ccc(F)cc3)CC2)COc2ccccc21	8%[70.6 µM]
COCC(=O)N(C1CCOCC1)C1CCN(S(=O)(=O)c2c(C)noc2C)CC1	-11%
O=C(NC1CCCCC1)N1C[C@@H]2C[C@H](C1)c1c(NS(=O)(=O)c3cccc(F)c3)ccc(=O)n1C2	-19%
CC(C)c1nncn1C1CCN(S(=O)(=O)c2cc(F)ccc2F)CC1	5%
CC(C)CNc1ccc2c(n1)C(C)(C(=O)NCCc1cnc[nH]1)CN(Cc1ccccc1)C2 (configuration not stated)	3%
O=c1c2nc(OCc3ccc(C(F)(F)F)cc3)ccc2ncn1C1CC1	?
COc1cccc(-c2ccc(CN3CCCC(c4nc5ccc(C)cc5c(=O)[nH]4)C3)cc2)c1 (configuration not stated)	11µM*
O=c1c2nc(-c3ccc4c(c3)OCO4)ccc2ncn1-c1ccc(F)cc1F	-3%[70.6 µM]
COc1cncc(Nc2ncc(-c3cccc(F)c3)c3c2OCC3)c1	-5%[70.6 µM]
CCn1nccc1C(=O)N1CCC2(CC1)C(OC)CN2c1cccc(F)c1 (configuration not stated)	2%

structure	hNpr1 antagonist
Cc1c(CC(=O)NC(C)C)c2c(n1Cc1ccccc1F)CCCC2=O	-7%
Cc1cnc(C(=O)NC2C[C@H]3CC[C@@H](C2)N3C(=O)c2ccccc2)cn1 (some centres not stated)	-2%
CC1(COc2ccccc2)COc2ccc(C(=O)NCCOc3ccccc3)cc2N1 (configuration not stated)	?
CCn1nc(C)c(CCNC(=O)[C@H]2CNC[C@H](C(=O)N3CCCC3)C2)c1C	-14%
COc1ccc(C(=O)N2CCCCCNC(=O)[C@@H]3CCC[C@@H]32)c(OC)c1	-2%
Cn1nc(N2CCC(NC(=O)c3ccncn3)CC2)ccc1=O	-1%
CC1=C[C@@H](CNS(C)(=O)=O)[C@H](C(C)C)C[C@H]1Cc1nnc(-c2cncn2C)o1	2%[70.6 µM]
O=C(Cc1ccc(Cl)cc1)NC1CCN(c2ccccc2)C1=O (configuration not stated)	3%
CCOc1ccccc1C(=O)NC1CCCN(c2cc(-c3ccc(OC)cc3)[nH]n2)C1 (configuration not stated)	-20%
Cc1noc(C)c1-c1cc2c(cc(C)n2CCN(C)C)c(-c2ccc(CO)cc2)n1	-21%[70.6 µM]

structure	hNpr1 antagonist
OC(c1ccc2c(c1)CCO2)c1nc(Nc2cccc(C(F)(F)F)c2)n[nH]1 (configuration not stated)	-8%[70.6 µM]
COc1cccc(CCC(=O)N2CCC(c3n[nH]c(=O)n3-c3ccc(C)cc3)CC2)c1	-11%
O=C(NCCC1CCN(C(=O)Nc2cc(F)cc(F)c2)CC1)c1ccc(F)cc1	-22%
CN1CCCCCC(O)c2cc(C(=O)NCCc3c[nH]c4ccccc34)ccc21 (configuration not stated)	-8%
CN1CCCCCCN(S(C)(=O)=O)[C@H]2CCC[C@H]2C1=O	-1%
Cc1ccc(CNC(=O)N2CCC(Cc3ccc(C(=O)NC4CC4)cc3)CC2)cc1	?
O=C(c1ccccc1)N1CCC2(Cc3ccccc3NC2=O)C1 (configuration not stated)	-4%[70.6 µM]
Cc1ccccc1CC(=O)N1CCCC(n2cc(-c3nc(-c4ccccc4)no3)nn2)C1 (configuration not stated)	?
CCN1c2cc(C(=O)NC3CCCCCC3)ccc2C(=O)N2CCCCC21 (configuration not stated)	5%
Cc1cccc(OCC2CCCN(C(=O)c3ccc4nc(C)cn4c3)C2)c1 (configuration not stated)	3%

structure	hNpr1 antagonist
CNC(=O)[C@H]1C[C@H](Oc2ccccc2)CN1S(=O)(=O)c1ccc(F)cc1	4%
Cc1cn2nc(C(=O)NCc3ccc(Cl)cc3)cc2c(N(C)Cc2ccccc2)n1	-8%
Cc1nc(CCNc2nccc(-c3cccnc3)n2)nc2c1CCCC2	-2%
Cc1ccc(C2Cn3nnc(C(=O)N4CCC(C(=O)NC5CCC(C)CC5)CC4)c3CO2)cc1 (configuration not stated)	-4%
Cc1ccc(C)c(S(=O)(=O)N2CCN(C3CCN(Cc4cccnc4)C3=O)CC2)c1 (configuration not stated)	2%
COc1cccc(NC(=O)C2CC(=O)N(c3n[nH]c4cccc(F)c34)C2)c1 (configuration not stated)	2%
CCOc1ccccc1CN1CCC2(CC1)CC1C(=O)N(CC)C(=O)N1C2 (configuration not stated)	-14%
O=C(NCC(F)(F)F)c1cc(Br)cn2ccnc12	0%&-12%[70.6 µM]
CCCN1CCN(C(=O)c2cc3c(s2)CCN(C(=O)c2ccc(F)cc2)C3)CC1	-8%
O=C(c1ccoc1)N1CCC(N2CC3CC(C2)[C@H]2CCCC(=O)N2C3)CC1 (some centres not stated)	5%

structure	hNpr1 antagonist
CCO[C@H]1CN(c2cc(C)nc(-c3ccccc3O)n2)C[C@@H]1O	-1%
O=C1CCCN1CCCn1ccnc1-c1cc2n(n1)CCCNC2	3%
COc1ccc(-n2nc(C3CCCN([S+](=O)([O-])c4cccc(C(F)(F)F)c4)C3)[nH]c2=O)cc1 (configuration not stated)	0%
O=C(NCCc1ccc2c(c1)OCO2)[C@H]1CNC[C@H](C(=O)N2CCCC2)C1	2%
Cc1nc(-c2cnccn2)n(CC(=O)Nc2ccccc2)c(=O)c1C	-17%
O=C1c2c(nc(CNc3nccs3)n2Cc2ccccc2)NCCN1Cc1ccccc1F	2%
COC[C@H]1CCCN1C(=O)CC[C@@H]1CNC(=O)[C@@H]2C[C@H](NCc3ccc(OC)cc3)CN12	-7%
CCCNC(=O)Cc1csc2nc(C)c(-c3cc(C)n(-c4cccc(C)c4C)n3)c(=O)n12	2%
O=c1[nH]c(N2CCOCC2)nc2c1CCN(Cc1cccc(Br)c1)CC2	-2%
COCCCNC(=O)C1CC(=O)N(c2n[nH]c3ccccc23)C1 (configuration not stated)	-4%

Retrieved one by one from the list above (six):
structure	hNpr1 antagonist
CCCNC(=O)Cc1csc2nc(C)c(-c3cc(C)n(-c4cccc(C)c4C)n3)c(=O)n12	2%
Cc1nc(-c2cnccn2)n(CC(=O)Nc2ccccc2)c(=O)c1C	-17%
O=C1CCCN1CCCn1ccnc1-c1cc2n(n1)CCCNC2	3%
O=C(NCCc1ccc2c(c1)OCO2)[C@H]1CNC[C@H](C(=O)N2CCCC2)C1	2%
COCCCNC(=O)C1CC(=O)N(c2n[nH]c3ccccc23)C1 (configuration not stated)	-4%
CCO[C@H]1CN(c2cc(C)nc(-c3ccccc3O)n2)C[C@@H]1O	-1%

Additional results
structure	hNpr1 antagonist
COc1ccc(-c2cc(N3CCC(NC(=O)c4ccc(C)c(C)c4)C3)n[nH]2)cc1 (configuration not stated)	4%
COc1ccccc1C1CCCN1Cc1cn(CCC(N)=O)c2ccccc12 (configuration not stated)	4%
CN(Cc1ccc(-c2ccccc2)cc1)Cc1ccc(C(F)(F)F)cc1	23%
Cc1noc2c(NC(C)C)cc(-c3cccs3)nc12	-1%[70.6 µM]
O=C(NC1CCN(c2cc(C(F)(F)F)ncn2)CC1)c1ccccc1	?
CN1C[C@@H](NC(=O)NC2CCCCC2)C[C@H]1c1nc(-c2ccccn2)no1	-10%[70.6 µM]
COC1CCC12CCN(C(=O)Nc1ccccc1F)CC2 (configuration not stated)	-1%
COc1ccccc1-c1cc(-c2ccc(N3CCOCC3)cc2)c2onc(C)c2n1	4%[70.6 µM]
CC(=O)Nc1ccc(CN2CCC3(CC2)CN[S+](=O)([O-])c2ccccc2N3)cc1	0%
O=C1CCC2(CCCO2)CCN1Cc1ccc(C(F)(F)F)cc1 (configuration not stated)	3%
CCOc1ccccc1C(=O)NCCc1noc(-c2ccccc2)n1	-15%
CC(=O)N1CCC(N[C@H]2C[C@@H](Cc3cc(CN(C)Cc4ccccc4)on3)C2(C)C)CC1	3%
COCC(=O)N[C@H]1C[C@H]2C(=O)NC[C@@H](CCC(=O)NCc3cccnc3)N2C1	2%[70.6 µM]

Rewritten with each value named: part of the list above.
CN(Cc1ccc(-c2ccccc2)cc1)Cc1ccc(C(F)(F)F)cc1
- hNpr1 antagonist = 23%
COc1ccccc1-c1cc(-c2ccc(N3CCOCC3)cc2)c2onc(C)c2n1
- hNpr1 antagonist = 4%[70.6 µM]
CC(=O)N1CCC(N[C@H]2C[C@@H](Cc3cc(CN(C)Cc4ccccc4)on3)C2(C)C)CC1
- hNpr1 antagonist = 3%

Only part of the results is shown; count on the stated rates, not on these rows.
